# Compound activity from PubChem.
# NPYLR7 agonist: agonists of mosquito NPYLR7 receptor, primary screen, cell-based, Aedes aegypti, calcium fluorescence, mosquito biting behavior; activation, % at 10 µM; Aedes aegypti neuropeptide Y-like receptor 7 (NPYLR7); HEK293T NPYLR7/Galpha15, GCaMP6s calcium fluorescence; 270,000 tested, 0.15% active; in the data active = activation above about 40%;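 note: 0% = vehicle and 100% = reference agonist at the receptor; some compounds past the cut are filed as inactive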
# NPYLR7 agonist max-min: second read-out of NPYLR7 agonist, no call of its own (marks repeat the call); activation, %; measured here: Max-Min RFU normalised activation; some inactives read as strong as hits;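 span of the calcium signal over five minutes; 0% = vehicle and 100% = native peptide agonist; compound fluorescence can raise it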
# An asterisk follows results filed as active; & = joins results of further samples. Not all compounds are listed. The share of hits here may be higher or lower than overall.
# Sample of the layout:
SMILES,NPYLR7 agonist,NPYLR7 agonist max-min
CCCCN1CCc2ccc(NC(=O)CN(C)S(=O)(=O)c3cccs3)cc21,6,4
COc1ccccc1C(NC(=O)C1CCN(Cc2ccc(Oc3ccccc3)cc2)CC1)c1ccccn1 (centres undefined),-7,-3

# All compounds of this part, from the start:
SMILES,NPYLR7 agonist,NPYLR7 agonist max-min
CCCCN1CCc2ccc(NC(=O)CN(C)S(=O)(=O)c3cccs3)cc21,6,4
COc1ccccc1C(NC(=O)C1CCN(Cc2ccc(Oc3ccccc3)cc2)CC1)c1ccccn1 (centres undefined),-7,-3
CCCCc1ccc(-c2nc(C=Nc3cccc(C)c3)c(O)o2)cc1,-5,-9
Cc1cn2c3c(=O)n(CCC(C)C)c(=O)n(C)c3nc2n1-c1ccc(F)cc1,7,5
CS(=O)(=O)N1CCC(NCC2(N3CCOCC3)CCCCC2)CC1,5,1
CCNc1ccccc1C(C)(C)C,18,9
CCOC(=O)c1c(NC(=O)c2ccc(F)c(F)c2F)c(-c2ccc3c(c2)OCO3)cn1C,4,-2
CCCN(Cc1csc(COc2ccc(OC)cc2)n1)S(=O)(=O)c1ccc(OC)cc1,-9,-13
CC(=O)C(C)n1c(=O)oc2ccc(Cl)cc21 (centres undefined),17,6
c1nc(NCCN2CCOCC2)c2sc3nc(N4CCOCC4)c4c(c3c2n1)CCCC4,12,5
O=C(CCc1cccc(Cl)c1Cl)Nc1ncn[nH]1,1,1
Cc1ccc(C)c(C(C)NS(=O)(=O)c2cccc(C#N)c2)c1 (centres undefined),8,5
COc1cc(=O)n(-c2ccc(C)cc2)nc1C(=O)N1c2ccc(F)cc2CCC1C (centres undefined),10,4
CC(Sc1ccc(C#N)cn1)C(=O)Nc1ccc(C(C)(C)C)cc1 (centres undefined),2,2
Cn1c(CCCNC(=O)c2c(O)cccc2O)nc2ccccc21,-5,-6
CC(C)CCN(Cc1c(-c2ccccc2)noc1N1CCN(C)CC1)C(=O)c1ccc(Cl)cc1,-13,-6
CN1C(=O)CC(C(=O)Nc2ccc(F)cc2)SC1=Nc1cccc(C(F)(F)F)c1 (centres undefined),2,2
C=CCN1C(=O)C2(c3ccccc31)c1c(cc(C)n(C)c1=O)OC(=N)C2C#N (centres undefined),0,-4
O=c1c2ccccc2oc2nc(-c3ccccc3)n(-c3ccccc3)c(=O)c12,7,5
CC1C(=O)N(c2ccc(Cl)cc2Cl)CCN1C(=O)CCc1ccccc1 (centres undefined),-4,0
CN(c1ccccc1)N1CC(C(=O)Nc2ccc(-c3ccccc3)cc2)CC1=O (centres undefined),-4,-7
CCOC(=O)c1cc(-c2cccc(NC(=O)c3oc4ccccc4c3C)c2)n(-c2ccccc2OC)n1,18,7
Clc1ccc(CN2CCN(CCOCC3CCCO3)CC2)s1 (centres undefined),1,34
COc1ccc(OC)c(S(=O)(=O)NCCSC2Sc3ccccc3NC2=O)c1 (centres undefined),4,2
CCC(C)N1C(=O)/C(=C\c2c(C)n(C)n(-c3ccccc3)c2=O)N(C)C1=S (centres undefined),25,28
CC(C)(C)c1ccc(COc2ccccc2C(N)=O)cc1,8,3
Cn1nccc1-c1ccc2c(n1)C(=O)N(C1(C(=O)NCC3CC3)CC1)C2,-14,-15
O=C(OCc1cc(Cl)c2c(c1)OCCO2)c1n[nH]c(=O)c2ccccc12,8,3
Cc1cc(C)nc(SC/C=C/CSc2nc(C)cc(C)n2)n1,5,8
CN(Cc1cc2n(n1)CCNC2)CC1CCN(c2ccccc2)C1 (centres undefined),5,5
CC(C(=O)N1CCn2nc(C(=O)Nc3ccccc3)cc2C1)n1cncn1 (centres undefined),5,1
Cc1cccnc1NC(=O)CC1CSc2nc3c(c(=O)n21)CCCC3 (centres undefined),1,0
O=C1C(C(c2ccccc2)N2CCC3(CC2)OCCO3)Sc2nc(-c3ccco3)nn21 (centres undefined),-4,-7
CCCn1c(=O)c(C(=O)NCc2ccccn2)nn(-c2ccc(OC)c(OC)c2)c1=O,17,17
CC1(C)CC(=O)C(C(Nc2sc3c(c2C#N)CCC3)Nc2sc3c(c2C#N)CCC3)C(=O)C1,19,15
CCOC(=O)C1(C)CCCCN1C(=O)c1ccc(F)c(C)c1 (centres undefined),-5,-11
NC(=O)c1ccc[n+](CC(=O)Nc2ccc3c(c2)CCC3)c1,3,0
O=C(Nc1ccc2[nH]cc(CCN3CCN(c4cccc(C(F)(F)F)c4)CC3)c2c1)c1ccccc1OC(F)(F)F,-2,-9
O=c1[nH]c(CSc2nnnn2C2CCCC2)nc2cc(Cl)ccc12,8&2,4&5
COc1ccc(C2SCC(=O)N2CC(O)c2ccccc2)cc1 (centres undefined),2,-1
C=CCc1cccc(C=NNC(=O)c2cccs2)c1O,-1,-10
Cc1ccccc1CCNC(=O)Cn1nc2c(cc1=O)CCCC2,5,4
CCOc1ccccc1NC(=O)N1CCSC1c1cc(OC)cc(OC)c1 (centres undefined),2,8
CC1CCc2[nH]c3ccc(C(=O)NCC4CCCO4)cc3c2C1 (centres undefined),3,1
CC1C(=O)N(c2ccccc2Cl)CCN1C(=O)C1CCC1 (centres undefined),-10,-4
CCC(=O)N1CCCC1(C)C(=O)Nc1ccc2scnc2c1 (centres undefined),3,2
COc1ccc(C2(CCN=Cc3ccc(N(C)C)cc3)CCOC(C)(C)C2)cc1 (centres undefined),-7,-9
Cn1cncc1[C@@](N)(c1ccc(Cl)cc1)c1ccc2c(c1)c(-c1cccc(Cl)c1)cc(=O)n2C,-6,-9
Cc1ccccc1C1=NOC(CNCc2ccc(F)cc2F)C1 (centres undefined),0,-5
CCOC(=O)c1nn(-c2ccccc2C)c(=O)cc1OCc1cc(C)ccc1C,2,2
# Following part:
SMILES,NPYLR7 agonist,NPYLR7 agonist max-min
CN(CC1CCCCC1)C(=O)c1cc(=O)[nH]c2ccccc12,1,0
COc1ccc(-n2nnc(C(=O)OCc3ccccc3F)c2C)cc1,4,-4
Fc1ccc(C2C3CCCc4ccccc4C3=Nc3ncnn32)cc1F (centres undefined),8,6
COCCOc1nc(-c2ccc(C(F)(F)F)cc2)n(-c2ccc(NC(=O)CCCCl)cc2)n1,17,18
Cc1cc(CN(C)C(=O)c2ccc(OC3CCN(S(=O)(=O)N(C)C)CC3)cc2)on1,10,3
CC(C)Cc1ccc(S(=O)(=O)Nc2ccc(C(=O)N3CCC(CO)CC3)cc2)cc1,4,0
CCN(C)S(=O)(=O)NCCC1CN(Cc2ccco2)CCO1 (centres undefined),-4,-10
CCC(C)c1nn2c(=O)c(NC(=O)c3ccc(C)cc3)cnc2s1 (centres undefined),-4,-4
COc1ccccc1N1CCN(CC(=O)N2CCN(Cc3ccccc3F)CC2)CC1,1,0
Cc1cc(NC(=O)c2noc3c2CCCCC3)no1,-6,-4
O=c1c(C(F)(F)F)cc(C2CC2)nn1Cc1ncc(-c2ccc(F)cc2)o1,4,3
CCCCCc1ccc(-c2nc(Cc3ccccc3)no2)cc1,-4,1
Nc1cc(=O)[nH]c(N(Cc2ccccc2)Cc2ccccc2)n1,-6,-9
COCCN(CC(=O)N1CC(=O)N(c2cccc(C)c2)C1)C(=O)C(c1ccccc1)c1ccccc1,-1,6
Cc1sc(C(=O)N(C)CCc2ccccn2)c(-n2c(C)ccc2C)c1C,-4,-8
Cc1ccc(S(=O)(=O)N2CCN(Cc3cc4n(n3)CCNC4)CC2)cc1,6,7
O=C(NC(c1ccc(F)cc1)c1ccc2ccccc2n1)C1CCN(Cc2ccoc2)CC1 (centres undefined),8,-1
CCN(CC)C1CCN(C(=O)CSC(C)C(=O)Nc2cc(C)on2)C1 (centres undefined),6,5
Fc1ccc(OCCSc2n[nH]c3nc4ccccc4n23)cc1,0,7
O=C(NCc1ccc(OC(F)(F)F)cc1)c1cncn1-c1cccc(-c2cccc(OC(F)(F)F)c2)c1,5,-3
COCCN(CC(=O)N(Cc1ccccc1)Cc1cccn1Cc1cccc(C(F)(F)F)c1)C(=O)c1ccc([N+](=O)[O-])cc1,-8,5
Cc1cc(OCc2ccccc2)nc(-c2ccccc2)n1,1,-1
Cc1ccccc1C(=O)Nc1ccccc1C(=O)N1CCN(C)CC1,9,6
CCCCN(CC(=O)N1CCc2sccc2C1c1ccc(Cl)cc1)S(=O)(=O)/C=C/c1ccccc1 (centres undefined),18,17
O=c1c2c(-c3ccc(F)cc3)ccnc2[nH]n1-c1ccc(Cl)cc1,-2,-3
CC1CN(C(=O)CNc2cc3c(cc2Cl)OCCCO3)CCO1 (centres undefined),-1,-1
CCC(=O)c1ccc(OCC(O)Cn2nc(C)cc2C)cc1 (centres undefined),5,4
CCCc1nc(N2CCCN(C(=O)COCc3ccccc3)CC2)c2c(-c3cccc(C(F)(F)F)c3)noc2n1,16,3
CCN1CCN(C(c2ccc(OC)c(OC)c2)C2Sc3ncnn3C2=O)CC1 (centres undefined),3,2
COc1cccc(/C=N\NC2=NS(=O)(=O)c3ccccc32)c1O,7,5
CNC(=O)[C@@]1(OCc2cccc(F)c2)CC(OCc2cccc(Cl)c2)[C@@H]2OC(C)(C)O[C@@H]2C1 (some centres undefined),-4,3
CCOC(=O)c1ccc(NC(=O)CN2C(=O)c3ccccc3C2=O)cc1,-5,-10
CC12CCC(=O)N1C(C(=O)N1CCCN(c3ccc(C(F)(F)F)cn3)CC1)CS2 (centres undefined),3,1
Cc1ccc(-c2nnc(SCc3ccc(C(=O)N4CCCC4)cc3)n2-c2ccc(F)cc2)cc1,12,18
Cn1cc(CN2C(=O)NC(Cc3ccc(F)cc3)(C3CCNCC3)C2=O)cn1 (centres undefined),6,4
CCc1ccsc1CNC(=O)c1ccc(N2CCCCC2=O)cc1,3,1
Cc1[nH]cnc1-c1nccn1CCC(=O)Nc1ccc(N(C)C)cc1,21,10
O=C(Nc1cccc(C(F)(F)F)c1)c1cnc2n(c1=O)CCS2,-4,-7
Cc1c(C(C)NC(=O)Cc2ccc3c(c2)OCO3)cnn1-c1ccccn1 (centres undefined),-5,-7
COc1cc(C=NN=c2sc3ccccc3n2C)cc(Br)c1O,7,4
Cc1[nH]nc(NC(=O)c2ccoc2)c1-c1cccc(Br)c1,-5,-6
O=C(c1ccncc1)N1N=CCC1(O)C(F)F (centres undefined),0,-1
O=C(CCc1nnc(Cc2ccc(-c3ccccc3)cc2)o1)N1C[C@@H]2CCC[C@H]1C2,-1,-4
COc1ccc(F)c(CC2(CCC(=O)N3CCCCC3c3ccccn3)CCC(=O)N2)c1 (centres undefined),3,0
Cn1ncc([N+](=O)[O-])c1C(=O)Nc1ccc(Cl)cc1,-4,-10
Cc1ccc(C(=O)N2CCC(NC(=O)/C=C/c3ccccn3)CC2)cc1,9,5
CCN1CCOC(CNCc2ccc(S(C)(=O)=O)cc2)C1 (centres undefined),5,7
Cc1cn2c3c(=O)n(C)c(=O)n(C)c3nc2n1CC(C)C,1,2
Cc1ccc(NC2(C(=O)N[C@@H]3C[C@@H](CO)N(C)C3)CCCCC2)cc1C,3,0
CSCCCNC(=S)Nc1ccc(N2CCOCC2)cc1,8,7
# Following part
SMILES,NPYLR7 agonist,NPYLR7 agonist max-min
c1cc(CN(Cc2ccsc2)CC2CCCO2)c2[nH]ccc2c1 (centres undefined),-7,-10
Cc1cc(C)nc(N=C(N)Nc2ccc(OCc3ccc(Cl)cc3)cc2)n1,-7,-7
COc1cc(C2C(C(=O)c3cccs3)=C(O)C(=O)N2CCN2CCOCC2)cc(OC)c1OC (centres undefined),9,13
Cc1noc(C)c1CNC(=O)C1(c2ccccc2)CCCC1,0,9
Cc1ccc(-c2csc(-n3[nH]c(C)c(N=Nc4ccc([N+](=O)[O-])cc4)c3=O)n2)cc1,-4,-10
CCOc1ccc(Nc2nc(N3CC(C)OC(C)C3)nc(N)c2[N+](=O)[O-])cc1 (centres undefined),15,13
Cc1cc(I)ccc1N=Cc1nc(-c2ccc(Cl)cc2)oc1O,3,-12
CCCc1nc(N2CCC(NS(C)(=O)=O)CC2)c2cnn(C)c2n1,16,12
Cc1ccc(-c2nc(C=Nc3ccccc3Br)c(O)o2)cc1,-5,-13
CCOC(=O)c1cc(C(C)(C)C)n(C2CCN(C(=O)CC3CCCC3)CC2)n1,11,4
CC(C)CN1CCC(C2CCN(Cc3cccn3-c3nccs3)C2)CC1 (centres undefined),6,5
CCCN(C(=O)CSc1nnc(-c2ccco2)o1)C1=CCCCC1,5,1
Cc1nn(CC(=O)NCC2CCCO2)c(C)c1[N+](=O)[O-] (centres undefined),-2,-5
CCOC(=O)CCN1C(=O)c2ccccc2S1(=O)=O,-6,-6

# A different layout for part of the listing above:
# The line under a structure holds: NPYLR7 agonist | NPYLR7 agonist max-min
c1cc(CN(Cc2ccsc2)CC2CCCO2)c2[nH]ccc2c1 (centres undefined)
→ -7 | -10
Cc1cc(C)nc(N=C(N)Nc2ccc(OCc3ccc(Cl)cc3)cc2)n1
→ -7 | -7
COc1cc(C2C(C(=O)c3cccs3)=C(O)C(=O)N2CCN2CCOCC2)cc(OC)c1OC (centres undefined)
→ 9 | 13
Cc1noc(C)c1CNC(=O)C1(c2ccccc2)CCCC1
→ 0 | 9
Cc1ccc(-c2csc(-n3[nH]c(C)c(N=Nc4ccc([N+](=O)[O-])cc4)c3=O)n2)cc1
→ -4 | -10
CCOc1ccc(Nc2nc(N3CC(C)OC(C)C3)nc(N)c2[N+](=O)[O-])cc1 (centres undefined)
→ 15 | 13
Cc1cc(I)ccc1N=Cc1nc(-c2ccc(Cl)cc2)oc1O
→ 3 | -12
CCCc1nc(N2CCC(NS(C)(=O)=O)CC2)c2cnn(C)c2n1
→ 16 | 12
Cc1ccc(-c2nc(C=Nc3ccccc3Br)c(O)o2)cc1
→ -5 | -13
CCOC(=O)c1cc(C(C)(C)C)n(C2CCN(C(=O)CC3CCCC3)CC2)n1
→ 11 | 4
CC(C)CN1CCC(C2CCN(Cc3cccn3-c3nccs3)C2)CC1 (centres undefined)
→ 6 | 5
CCCN(C(=O)CSc1nnc(-c2ccco2)o1)C1=CCCCC1
→ 5 | 1
Cc1nn(CC(=O)NCC2CCCO2)c(C)c1[N+](=O)[O-] (centres undefined)
→ -2 | -5
CCOC(=O)CCN1C(=O)c2ccccc2S1(=O)=O
→ -6 | -6
